Bioassay records as filed in PubChem BioAssay.
StopGo reporter – lowers the luciferase signal of an FMDV 2A StopGo reporter; Potency, µM (series often up to 57.9 µM), for inactives: at the highest dose signal change, negative = less light; 1.2% of 410,000 active; human cells with a luciferase reporter of 2A StopGo recoding; control for the full effect not named in the record; AID 1159524; active = well fitted falling curve with a large enough effect; inconclusive = small, poorly fitted or top-dose-only effect; inactive = no such curve, though single readings can be large or run the other way; tested in HEK293T cells; further: on the % scale 0 is the no-effect control and ±100 the full control effect; nearly all actives have a fitted effect of over 45% in size; luciferase light after 4 h
SARS PLP yeast – SARS-CoV PLP inhibition in yeast. S. cerevisiae expressing SARS-CoV PLpro, growth rescue; control for the full effect not named in the record. Potency, µM (titrated, usually from 32.9 µM), without a hit: at the top dose activity, positive = growth rescue. 0.19% of 330,000 active. AID 485353; active means well fitted rising curve with a large enough effect; inconclusive means small, poorly fitted or top-dose-only effect; inactive means no such curve, though single readings can be large or run the other way; further: 0% is about no effect; nearly all actives have a fitted effect of over 55% in size; growth read by luminescence after 48 h
Lassa entry inh – inhibitors of Lassa virus binding or cell entry; Potency, µM (top dose mostly 37.9 µM), for the others: top-dose activity change, negative = inhibition, hits mostly inhibitors; Lassa virus pseudotype entry inhibition, cell reporter; control for the full effect not named in the record; 1.2% of 300,000 active; active means well fitted inhibition curve with a large enough effect; inconclusive means small, poorly fitted or top-dose-only effect, or effect the other way; inactive means flat fitted curve, though single readings scatter; tested in HEK293 cells; further: on the % scale 0 is the no-effect control and ±100 the full control effect; nearly all actives have a fitted effect of over 50% in size; luciferase read-out
Cruzain inh noDet – blocks cruzain activity in detergent-free assay. P25779. 2.3% of 200,000 active. Potency, µM, without a hit: max response, negative = inhibition, hits mostly inhibitors. AID 1476. purified cruzain, Z-FR-AMC fluorescence, no detergent;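 further: plate controls were enzyme without inhibitor for no effect and buffer without enzyme for full effect; nearly all actives have a fitted effect of over 40% in size; top concentration of the series not given in the record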
Target sequence (P25779 123-467 limits assumed): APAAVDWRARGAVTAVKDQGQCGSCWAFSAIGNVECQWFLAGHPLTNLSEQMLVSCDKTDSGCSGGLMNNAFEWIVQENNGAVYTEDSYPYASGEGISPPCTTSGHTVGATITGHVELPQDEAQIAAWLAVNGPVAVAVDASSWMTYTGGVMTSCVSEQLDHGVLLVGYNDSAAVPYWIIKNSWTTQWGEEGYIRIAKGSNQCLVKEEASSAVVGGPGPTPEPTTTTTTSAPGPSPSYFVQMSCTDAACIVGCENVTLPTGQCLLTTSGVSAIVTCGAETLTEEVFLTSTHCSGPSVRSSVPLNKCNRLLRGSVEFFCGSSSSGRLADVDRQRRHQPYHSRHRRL
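Purified cruzain at 1.5 nM, pre-incubated 15 min with compound at room temperature in 100 mM sodium acetate pH 5.5, 5 mM DTT, 0.00005% Triton X-100. Reaction started with 2 uM Z-FR-AMC; AMC fluorescence increase over 60 s gives rate.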
RE007 growth inh – less growth of the S. pombe RE007 Vpr strain. 0.21% of 360,000 active. S. pombe RE007 Vpr strain, BacTiter-Glo ATP luminescence, 24 h; control for the full effect not named in the record. AID 651644. Potency, µM (series often up to 92.2 µM), inactives show at the highest dose activity change, negative = less growth; active = well fitted falling curve with a large enough effect; inconclusive = small, poorly fitted or top-dose-only effect; inactive = no such curve, though single readings can be large or run the other way;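 further: on the % scale 0 is the no-effect control and ±100 the full control effect; nearly all actives have a fitted effect of over 50% in size; the assay follows cell death caused by Vpr and the record does not say whether a fall means rescue or toxicity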
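Fission yeast RE007 carrying one integrated HIV-1 vpr copy, seeded at OD 0.01 in PMG+AL medium with 23 nL pinned compound. Grown 24 h at 30 degrees; viability read by BacTiter-Glo luminescence after 5 min.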
MARV entry inh – blocks Marburg virus binding to or entry into cells; Marburg virus pseudotyped entry inhibition, cell reporter; control for the full effect not named in the record; about a third of the inactives were read at about 46 µM; Potency, µM (top dose mostly 37.8 µM), for the others: at the top dose activity change, negative = inhibition, most hits filed as inhibitors; 1.8% of 300,000 active; active = well fitted inhibition curve with a large enough effect; inconclusive = small, poorly fitted or top-dose-only effect, or effect the other way; inactive = flat fitted curve, though single readings scatter; tested in HEK293 cells; about a fifth of its hits are not listed in these tables; further: on the % scale 0 is the no-effect control and ±100 the full control effect; luciferase read-out
Cruzain inh Det – inhibitors of Trypanosoma cruzi cruzain with detergent. Potency, µM, without a hit: max response, negative = inhibition, actives largely listed as inhibitors. P25779. 0.43% of 200,000 active. purified cruzain, Z-FR-AMC fluorescence, 0.01% Triton;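 further: plate controls were neutral wells for no effect and buffer without enzyme for full effect; nearly all actives have a fitted effect of over 40% in size; top concentration of the series not given in the record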
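Z-FR-AMC hydrolysis (2 uM substrate) by cruzain (1.5 nM) monitored kinetically at ex 360/em 450 nm after 15 min room-temperature compound exposure; 0.01% Triton X-100, pH 5.5, 5 mM DTT.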
NS1 function inh – blocks influenza NS1 protein function; S. cerevisiae slowed by influenza A NS1, growth recovery by OD600; Potency, µM (doses to about 46.1 µM), inactives show top-dose activity, positive = more growth; 0.4% of 270,000 active; active means well fitted rising curve with a large enough effect; inconclusive means small, poorly fitted or top-dose-only effect; inactive means no such curve, though single readings can be large or run the other way; further: nearly all actives have a fitted effect of over 50% in size
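Read-out: OD600 growth recovery of NS1-expressing budding yeast. Cells grown overnight at 30C in -URA glucose medium, washed, resuspended and diluted 1:100 in 2% galactose assay medium, pH 6.0. Same strain lacking NS1 served as positive control.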
Numbers without * were called inactive; ? = inconclusive; . = not tested or not shown; [ ] = remark or other dose. Unless noted, the call rests on the fitted dose curve; in most records, active means well fitted curve in the direction sought with a large enough effect; inconclusive means small, poorly fitted or top-dose-only effect, or another doubt; inactive means no such curve, though single readings can be large; an effect the other way counts as inactive or inconclusive. Potency means the concentration at half of the fitted maximal effect. No enrichment for hits; about 4.7% have a hit in one of these screens.

SMILES	StopGo reporter	SARS PLP yeast	Lassa entry inh	Cruzain inh noDet	RE007 growth inh	MARV entry inh	Cruzain inh Det	NS1 function inh
FC(F)(F)c1nnc(-c2ccccc2)nc1Sc1ccccc1	?	2%	3%	-7%	-18%	?	-4.6%	-17%
CCN1CCN(c2oc(-c3ccccc3)nc2S(=O)(=O)c2ccc(C)cc2)CC1	17%	0%	?	.	-5%	?	.	.
CCOC(=O)c1sc(NC(=O)CSc2nc(-c3ccco3)cc(C(F)(F)F)n2)c(C#N)c1C	.	-1%	6%	-8%	-13%	6%	-8.3%	-3%
Cc1nnc(N/N=C/c2ccc(O)c([N+](=O)[O-])c2)[nH]c1=O	-12%	24%	21%	-3%	12%	3%	-3.7%	3%
CC(C)NC(C)C(=O)C12CC3CC(CC(C3)C1)C2 (stereo unspecified)	5%	6%	-2%	-4%	5%	-15%	7.0%	-1%
CN(CC(=O)Nc1ccc(F)cc1)C(=O)COC(=O)CNC(=O)c1ccc(Cl)cc1Cl	-3%	-2%	-15%	.	-20%	4%	.	.
CCOc1ccc(CNC(=O)c2ccc(-c3nc(CSc4ccc(C)cc4)c(C)o3)cc2)cc1	14%	.	-4%[46.1 µM]	7%	.	.	-1.2%	.
CCC(C)NC(=O)CCCCCn1c(=O)[nH]c2cc(OC)c(OC)cc2c1=O (stereo unspecified)	3%	7%	-4%	6%	-6%[3.69 µM]	-4%	3.1%	4%
C=C1CCN([C@@H](C)C(=O)NCc2ccc(Cl)cc2)S(=O)(=O)c2ccccc21	?	-2%	.	.	-14%	.	.	0%
O=[N+]([O-])c1cc(S(=O)(=O)Nc2ccccc2)ccc1NCc1cccnc1	4%	5%	-2%	-11%	-1%	-27%	-7.5%	-7%
COC(=O)c1sc(=S)n(-c2ccc(Cl)cc2)c1C	-11%	-16%	-1%	-6%	-14%	-6%	-10.0%	-4%
CCOC(=O)c1c(C)[nH]c(C)c1C(=O)CSc1ncccn1	-8%	0%	13%	5%	-10%	1%	0.3%	2%
NS(=O)(=O)c1ccc(CNS(=O)(=O)c2cccc3nonc23)cc1	9%	-1%	13%	.	-3%	7%[46.1 µM]	.	6%
CCCC1(C(=O)OCC)NC(c2ccc(N(C)C)cc2)C2C(=O)N(c3ccc4c(c3)OCCO4)C(=O)C21 (stereo unspecified)	-5%	-5%	10%	?	18%	-4%	-3.9%	12%
CC(C)CN(C(=O)c1ccc(N2CCCC2=O)cc1)C1CCS(=O)(=O)C1 (stereo unspecified)	-16%	-2%	18%	.	1%	9%[46.1 µM]	.	.
Oc1c(Br)cc(Br)cc1CNc1cccc2cccnc12	-4%	1%	.	.	?	.	.	-18%
O=C(NNC(=O)c1ccc2c(c1)OCO2)NC1CCCCC1	49%[activator]	6%	5%	4%	7%	?	10%	7%
O=C(CSc1ncnc2ccccc12)c1ccc2c(c1)OCCO2	-16%	-18%	-29%	-5%	0%	?	-5.9%	6%
COc1ccc(CC(NC(C)=O)C(=O)NC2CCN(S(=O)(=O)c3ccc(NC(C)=O)cc3)CC2)cc1OC (stereo unspecified)	0%	0%	12%	.	-5%	4%	.	1%
C=CCOC(=O)C1=C(C)NC(=O)NC1c1ccc(Cl)cc1 (stereo unspecified)	-15%	0%	.	-1%	15%	.	0.1%	1%
COc1ccc(OCC(=O)OCCNC(=O)c2cccnc2)cc1	-13%	-8%	8%	-1%	4%	17%	-2.5%	2%
COc1ccc2c(c1)C(=O)N(c1ccccc1C)C(=O)C2(C)C	-22%	-5%	-19%	.	4%	-12%[46.1 µM]	.	.
COc1cc2c(cc1NC(=O)COc1cc(C)ccc1C)oc1ccccc12	-26%	.	-8%[46.1 µM]	1%	.	.	0.5%	.
COc1ccc(N2C(=O)c3ccccc3S2(=O)=O)cc1	4%	2%	.	.	5%	.	.	-10%
Cc1ccc(-n2c(SCC(=O)O)nc3sc4c(c3c2=O)C(C)CCC4)cc1 (stereo unspecified)	-28%	0%	.	.	9%	.	.	3%
O=C1/C(=C/c2ccccc2)SC(=S)N1C1CCS(=O)(=O)C1 (stereo unspecified)	?	3%	.	.	-13%	.	.	12%
COc1ccccc1-c1nc2cc(NC(=O)c3ccccc3Cl)ccc2o1	36%[activator]	.	15%[46.1 µM]	-4%	.	.	-6.4%	.
Cc1ccc(NC(=O)N2CC=C(c3c[nH]c4ccccc34)CC2)cc1Cl	-6%	.	?	-21%	.	.	-9.7%	.
Cc1ccc(-n2ncc(C(=O)NCC3CCN(C4CCCC4)C3)c2C2CCN(C(=O)OC(C)(C)C)CC2)cc1 (stereo unspecified)	-6%	5%	.	.	4%	.	.	-2%
CCOC(=O)C1=C(CSc2nc3c(cc2C#N)CN(C)CC3)OC(N)=C(C#N)C1c1ccc(Cl)cc1 (stereo unspecified)	0%	2%	8%	-17%	4%	?	-6.6%	18%
COC(=O)c1ccccc1NC(=O)CSc1ccccn1	2%	1%	?	-3%	-22%	14%	4.4%	-16%
N#CCC(=O)N/N=C1\CCCCC1C1CCCCC1 (stereo unspecified)	-12%	-8%	-4%	-3%	2%	22%	-2.6%	2%
Cc1cccc(N2CCN(C(=O)C3CCCN(C(=O)c4cc5sccc5n4C)C3)CC2)c1C (stereo unspecified)	?	.	.	?	.	?	-9.5%	.
CCc1ccc(-c2cc(C)no2)cc1S(=O)(=O)N1CCOc2ccc(C)cc21	?	-1%	.	.	-5%	.	.	17%
COc1ccc(C(CC(=O)NCc2ccco2)c2ccc(F)cc2)cc1 (stereo unspecified)	?	-2%	-6%	3%	-11%[3.69 µM]	-18%	-4.9%	-8%
COc1cc(NC(=O)COC(=O)/C=C/c2c(C)nn(-c3ccc(F)cc3)c2Cl)cc(OC)c1	-10%	-7%	4%	6%	7%	2%[46.1 µM]	-1.9%	-7%
CC(C)NC(=O)N1CCC(c2nc3ccccc3s2)CC1	-5%	0%	.	.	-5%	.	.	-8%
COc1ccc(N(CC(=O)NCCSCc2cccc(Cl)c2)S(C)(=O)=O)cc1Cl	-24%	8%	?	.	-9%	?	.	-12%
O=C(NCCC1CCCCN1S(=O)(=O)c1cccs1)C(=O)Nc1ccccc1F (stereo unspecified)	-6%	-1%	24%	.	1%	?	.	.
C=CCn1cccc(C(=O)Nc2ccc(OC)c(OC)c2)c1=O	30%[activator]	1%	18%	.	-3%	26%[46.1 µM]	.	.
Cc1c(CC(=O)NCCCC(=O)O)c(=O)oc2cc3occ(-c4ccccc4)c3cc12	-6%	0%	4%[46.1 µM]	.	14%	2%[46.1 µM]	.	11%
CCOC(=O)C1CCCN(c2ccc(NC(=O)c3snc4c(=O)[nH]c(C)nc34)cc2)C1 (stereo unspecified)	-16%	1%	-14%	-23%	-3%	?	6.7%	17%
CC(C)OC(=O)CSc1nc2cccnc2n1-c1ccc(F)cc1	1%	-1%	1%	3%	-9%	0%	2.3%	-15%
Cc1ncoc1C(=O)N1CCCC(CCC(=O)NCc2ccccc2F)C1 (stereo unspecified)	10%	1%	?	.	8%	?	.	3%
O=[N+]([O-])c1ccc(Oc2ccc(F)cc2Br)c2ccncc12	-4%	-18%	?	-16%	14%	-24%	-11%	-13%
O=C(O)CCn1c(=O)n(CCC(=O)O)c(=O)n(CCC(=O)O)c1=O	-26%	1%	7%[46.1 µM]	.	8%	1%[46.1 µM]	.	1%
[O-][n+]1onc2c1CCc1nnccc1-2	1%	1%	5%	-4%	7%	-15%	6.2%	-15%
CS(=O)(=O)Oc1ccc2c(c1)O/C(=C\c1cccc([N+](=O)[O-])c1)C2=O	-7%	0%	.	.	-18%	.	.	1%

Molecules shown so far with a CF3 group:
SMILES	StopGo reporter	SARS PLP yeast	Lassa entry inh	Cruzain inh noDet	RE007 growth inh	MARV entry inh	Cruzain inh Det	NS1 function inh
FC(F)(F)c1nnc(-c2ccccc2)nc1Sc1ccccc1	?	2%	3%	-7%	-18%	?	-4.6%	-17%
CCOC(=O)c1sc(NC(=O)CSc2nc(-c3ccco3)cc(C(F)(F)F)n2)c(C#N)c1C	.	-1%	6%	-8%	-13%	6%	-8.3%	-3%

(next part)
SMILES	StopGo reporter	SARS PLP yeast	Lassa entry inh	Cruzain inh noDet	RE007 growth inh	MARV entry inh	Cruzain inh Det	NS1 function inh
CCOC(=O)N1CCC2(CC1)CC(=O)c1c(ccc3oc(C(=O)O)c(C)c13)O2	-19%	3%	-2%	?	2%	11%	-8.6%	14%
Cc1cccc(NS(=O)(=O)c2ccc(C(=O)N3CC(C)OC(C)C3)cc2)c1C (stereo unspecified)	-22%	5%	-1%	.	-15%	?	.	.
O=C(CCCn1c(=O)oc2ccccc21)Nc1cccnc1	-16%	11%	4%	-2%	-5%	-5%	3.3%	-2%
COCCOC1CCN(C(=O)c2ccc(OC)c(OC3CCN(C(C)C)CC3)c2)CC1	5%	3%	.	.	-8%	.	.	3%
O=C(Nc1ccc(Nc2ccccc2)cc1)C(Cl)(Cl)Cl	-24%	-67%	16%	-11%	23%	3%	-10%	-17%
COc1ccc(OC)c(C=Nc2ccccc2-c2nc3ccccc3[nH]2)c1	11%	-29%	-23%	?	0%	-22%	27%	-22%
COc1ccc(C)cc1NC(=O)CN(c1cc(C(F)(F)F)ccc1Cl)S(C)(=O)=O	2%	.	-8%[46.1 µM]	25%	.	?	-9.8%	.
COC(=O)c1oc2ccc(Br)cc2c1NC(=O)c1ccccc1	-23%	3%	2%	13µM*	18%	-4%	2.2%	6%
CCCNS(=O)(=O)c1ccc(Oc2ncc(C(F)(F)F)cc2Cl)cc1	6%	-2%	-4%	4%	5%	?	-5.2%	-2%
O=C(NCc1cccnc1)c1cccc(NS(=O)(=O)c2ccc(Br)cc2)c1	-23%	0%	7%	.	0%	?	.	.
CC(=O)O/N=C(\N)c1cnn2c(C(F)(F)F)cc(C(F)(F)F)nc12	-1%	2%	.	.	-8%	.	.	3%
Cn1nnc2c(NCc3ccc(Cl)cc3)ncnc21	-5%	.	10%[46.1 µM]	-5%	.	.	-0.4%	.
